High-throughput results: PubChem BioAssay, several laboratories
Arbovirus anti = antivirals against arbovirus infection, primary screen, cell-based, full library, 10K replicate subset | arbovirus infection cell-based antiviral screen | inhibition, % at 10 µM | 200,000 compounds, 0.37% hits | AID 1251, 2008;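 active means inhibition from about 30%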;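 further: bluetongue infection of BSR cells; cell survival read as ATP light after 72 h; 0% = infected wells without compound and 100% = uninfected wells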
RecA intein inh = Mtb RecA intein splicing inhibitors, primary screen, biochemical, fluorescence, HTS. AID 2221, 2009. 290,000 compounds, 0.75% hits. Protein RecA (Mycobacterium tuberculosis (strain ATCC 25618 / H37Rv)), P9WHJ3. inhibition, %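 (about 9 µM by stock and volumes)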. cell-free RecA intein splicing; in the data active means inhibition above about 30%; inconclusive means no clear call, values can overlap the other calls;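 further: 0% = vehicle wells and 100% = reference inhibitor control wells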
Target sequence (P9WHJ3 whole entry, looked up): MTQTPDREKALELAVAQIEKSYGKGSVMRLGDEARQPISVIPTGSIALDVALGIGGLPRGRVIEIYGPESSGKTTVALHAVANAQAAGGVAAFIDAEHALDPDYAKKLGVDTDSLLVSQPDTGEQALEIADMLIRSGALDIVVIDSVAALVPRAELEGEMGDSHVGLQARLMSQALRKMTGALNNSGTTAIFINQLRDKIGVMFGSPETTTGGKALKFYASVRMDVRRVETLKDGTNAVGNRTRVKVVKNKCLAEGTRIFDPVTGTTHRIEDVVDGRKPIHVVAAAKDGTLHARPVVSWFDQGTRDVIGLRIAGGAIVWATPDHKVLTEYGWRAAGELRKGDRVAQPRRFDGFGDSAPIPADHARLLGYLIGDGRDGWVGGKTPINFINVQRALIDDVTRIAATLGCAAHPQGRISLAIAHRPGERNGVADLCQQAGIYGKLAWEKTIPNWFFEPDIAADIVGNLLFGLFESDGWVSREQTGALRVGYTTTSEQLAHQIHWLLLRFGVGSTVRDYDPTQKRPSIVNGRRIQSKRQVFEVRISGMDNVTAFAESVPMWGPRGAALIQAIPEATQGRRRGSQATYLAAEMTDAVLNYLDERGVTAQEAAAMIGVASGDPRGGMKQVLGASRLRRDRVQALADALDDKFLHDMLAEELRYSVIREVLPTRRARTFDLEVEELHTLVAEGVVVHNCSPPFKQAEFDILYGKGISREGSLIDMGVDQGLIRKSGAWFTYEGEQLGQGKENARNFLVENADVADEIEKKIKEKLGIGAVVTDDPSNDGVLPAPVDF
YopH PTP inh = YopH tyrosine phosphatase inhibitors, primary screen, biochemical, fluorescence Ex485/Em525; YopH tyrosine phosphatase [Yersinia enterocolitica]; inhibition, %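 (about 10 µM by stock and volumes)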; 140,000 compounds, 0.16% hits; AID 898, 2007;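 active means inhibition of 50% or more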;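 further: controls were vehicle for no effect and minimum signal wells for full effect; inactives centre near -20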
Mtb betalactam = beta-lactam sensitization of Mtb H37Rv, H37Rv | M. tuberculosis H37Rv growth with meropenem, percent inhibition; hits of this screen are not shown here | inhibition, % at 25 µM | 330,000 compounds, 0.27% hits;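 active means about 74% or more and at least 40 points above the plate without the antibiotic, then above 30% in a dose series; inconclusive means first-round hits that could not be retested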;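 further: growth measured after seven days incubation then overnight dye step; 0% = bacteria only wells and 100% = bacteria with antibiotic; twin plates without the antibiotic show which effects depend on it; some results filed as inactive read as strong as hits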
Mtb H37Rv = M. tuberculosis H37Rv growth inhibitors, H37Rv strain (AID 1626) | 220,000 compounds, 0.95% hits | M. tuberculosis H37Rv growth inhibition; higher % means a stronger effect | one-dose inhibition, % at 10 µM; IC50 in µM for titrated hits;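 active means confirmed in a dose series; inconclusive means inhibition above 80% but not taken into the dose series; inactive means below 80% or under 30% at every dose of the series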;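 further: bacteria incubated seven days before Alamar blue readout; 0% = bacteria only wells and 100% = bacteria with antibiotic wells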
Arbovirus anti repeat = further read-out of Arbovirus anti, marked with its call; inhibition, %; measured here: 10K subset replicate screen; many hits read low in the repeat;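 first of two repeat runs on a subset; 0% = infected and 100% = uninfected wells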
* hit, by the source's call; ? = inconclusive; nt = not tested or not shown. The list is partial. The share of hits here may be higher or lower than overall.

SMILES | Arbovirus anti | RecA intein inh | YopH PTP inh | Mtb betalactam | Mtb H37Rv | others
Nc1nc(O)c(Sc2ccccc2[N+](=O)[O-])c(=O)[nH]1 | nt | -1.3 | nt | -3 | nt
O=C1CCC(CCC(=O)N2CCCC(C(=O)c3ccc(Cl)cc3)C2)=NN1 (centres undefined) | -2 | -1.4 | nt | 0 | -8%
COCCCN(C(=O)Nc1ccc(C)c(C)c1)C(C)c1ccccn1 (centres undefined) | 5 | -1.6 | -27 | -1 | -4% | Arbovirus anti repeat=-2
CC(C)CN(CC(C)C)S(=O)(=O)N1CCC(C(=O)NCc2cccnc2)CC1 | -1 | 1.7 | nt | 1 | -3%
CN(c1ccccc1)S(=O)(=O)c1cccc(NC(=O)CSc2nncs2)c1 | 11 | -4.5 | -17 | -2 | 2%
COc1cccc(CNc2ccc(S(=O)(=O)Nc3nccs3)cc2)c1O | -1 | 3.2 | 6 | 79 | 8%
COc1ccc(OC)c(-c2nc3ccccc3nc2-c2ccccc2)c1 | nt | 5.0 | nt | -2 | 11%
CN(CCc1ccccn1)C(=O)CCC1CCCN(C(=O)CCOc2ccccc2)C1 (centres undefined) | 6 | 0.0 | nt | 4 | 2%
C=CCn1c(SCC(=O)c2ccc(O)c(O)c2)nnc1-c1ccccc1OC | -8 | -6.4 | -44 | 25 | -2%
Cn1c(O)c(Cc2cccc(Cl)c2Cl)c(=O)n(C)c1=O | nt | 2.3 | nt | -9 | nt
NNC(=O)c1cc(-c2ccccc2)sc1N | nt | -1.2 | nt | -4 | 8%
C/C(CC(c1ccccc1)c1c(O)c2ccccc2oc1=O)=N\NC(N)=S (centres undefined) | -1 | 0.2 | -55 | -7 | 4%
O=C1C2C(C(=O)N1CCN1CCN(Cc3ccc([N+](=O)[O-])cc3)CC1)[C@H]1C=C[C@@H]2C1 (some centres undefined) | nt | -1.3 | nt | -3 | -1%
Nc1nonc1C(=O)NCCN=Cc1cc(Cc2ccccc2)cc(Br)c1O | 5 | 1.3 | -34 | 0 | nt
COc1ccccc1NC(=O)C1CCCN(S(=O)(=O)c2ccccc2)C1 (centres undefined) | nt | 1.3 | nt | -7 | nt
CCN1CCCC1CNC(=O)c1ccc(Sc2ccccc2Cl)c([N+](=O)[O-])c1 (centres undefined) | -24 | 1.4 | nt | -11 | 4%
C#Cc1ccc([C@H]2C=C(C(=O)O)O[C@@H](OCCCCO)C2)cc1 | nt | 0.6 | nt | -3 | -6%
CNC(=O)CCSc1ccc(C)cc1 | -4 | -1.1 | -42 | -16 | -6%
CC1CCCN(CCCNS(=O)(=O)c2ccc3c(c2)CCN3C(=O)C2CC2)C1 (centres undefined) | nt | -1.3 | nt | 0 | nt
N=C1SCC(=O)N1c1nc(-c2ccccc2)cs1 | 7 | -5.3 | 3 | -2 | -9%
Cc1ccc(-c2c[nH]c(=S)n2-c2ccccc2)cc1 | -3 | -1.5 | nt | 1 | -3%
Cc1ccc(NC(=S)N(CCN(C)C)Cc2cc3cccc(C)c3[nH]c2=O)cc1 | 8 | 1.4 | -10 | 6 | 6%
CCOc1nc(NCCN2CCOCC2)nc(Nc2ccc([N+](=O)[O-])cc2)n1 | 1 | 1.8 | nt | -13 | -6%
CC(=O)Nc1ccc(S(=O)(=O)Nc2cccc(-c3cn4c(n3)SCC4)c2)cc1 | 0 | -2.8 | nt | 3 | 6%
Cc1ccc(NC(=O)CSc2nnc(NC(=O)C3CC3)s2)cc1C | nt | 0.2 | nt | -3 | nt

Five compounds picked at random from those above, as already listed:
SMILES | Arbovirus anti | RecA intein inh | YopH PTP inh | Mtb betalactam | Mtb H37Rv | others
CCN1CCCC1CNC(=O)c1ccc(Sc2ccccc2Cl)c([N+](=O)[O-])c1 (centres undefined) | -24 | 1.4 | nt | -11 | 4%
CC1CCCN(CCCNS(=O)(=O)c2ccc3c(c2)CCN3C(=O)C2CC2)C1 (centres undefined) | nt | -1.3 | nt | 0 | nt
C=CCn1c(SCC(=O)c2ccc(O)c(O)c2)nnc1-c1ccccc1OC | -8 | -6.4 | -44 | 25 | -2%
C/C(CC(c1ccccc1)c1c(O)c2ccccc2oc1=O)=N\NC(N)=S (centres undefined) | -1 | 0.2 | -55 | -7 | 4%
Cc1ccc(NC(=O)CSc2nnc(NC(=O)C3CC3)s2)cc1C | nt | 0.2 | nt | -3 | nt

The list goes on:
SMILES | Arbovirus anti | RecA intein inh | YopH PTP inh | Mtb betalactam | Mtb H37Rv | others
O=c1c2[nH]c3ccccc3c2ncn1Cc1ccncc1 | 1 | -4.3 | -27 | -6 | 3%
CCOc1ccc(S(=O)(=O)N(CC(=O)NCC2CCCO2)c2ccc(F)cc2)cc1 (centres undefined) | nt | 1.8 | nt | -6 | nt
CC12CN(C(=O)c3ccc([N+](=O)[O-])cc3)CC(C)(CN(C(=O)c3ccc([N+](=O)[O-])cc3)C1)C2=O | nt | -0.5 | nt | 3 | nt
CC/C(C)=N/Nc1ccc(S(=O)(=O)N2CCCC2)cc1[N+](=O)[O-] | -5 | 0.1 | -35 | -7 | 3%
O=C(Nc1nnc(C2CCCC2)s1)C1CCC1 | 0 | 1.4 | -6 | -5 | -4%
C=CC1=C2C=C(C3CC3)N(C3CC3)C=C2C(=O)C(C)(OC(=O)c2ccco2)C1=O (centres undefined) | nt | -0.5 | nt | 3 | -4%
COC(=O)c1ccccc1NC(=O)NCc1cccnc1 | 12 | -9.1 | -20 | -2 | 2%
COCCNC(=O)CN(c1ccc(C)cc1)S(=O)(=O)c1ccccc1 | 12 | -1.2 | -39 | 6 | 3%
O=C1ON=C(c2ccccc2)/C1=C/c1ccccc1 | nt | -1.7 | nt | 3 | nt
COc1cnn(-c2cccc(C(F)(F)F)c2)c(=O)c1Cl | nt | 0.7 | nt | -13 | nt
COc1ccc(NC2=CC(c3ccccc3)N(c3ccc(OC)cc3)C2=O)cc1 (centres undefined) | nt | -5.2 | nt | 53 | 56%
Cc1cccc(C)c1NC(=O)c1cccc(C(=O)Nc2c(C)cccc2C)n1 | nt | 4.4 | nt | -11 | nt
c1ccc(Oc2cccc(CN3CCOCC3)c2)cc1 | 5 | nt | -15 | 1 | -1%
Cc1c[n+]([O-])ccc1Oc1ccc([N+](=O)[O-])cc1 | nt | 0.8 | nt | -12 | nt
CCC(=O)Nc1ccc(C(=O)COC(=O)CCN2C(=O)C3CC=CCC3C2=O)cc1 (centres undefined) | nt | -0.1 | nt | -10 | nt
Oc1ccccc1Cn1c(-c2ccccc2O)nc2ccccc21 | 5 | 0.8 | -34 | 84 | -6%
Cc1ccc(NC(=O)CCC(=O)N/N=C/c2cc([N+](=O)[O-])ccc2O)cc1 | -27 | -2.5 | -15 | 28 | 10%
CN(Cc1ccccc1)C(=O)CN1CCCC1=O | nt | 1.9 | nt | -7 | nt
Cc1c(OCC(=O)N2C[C@H]3C[C@@H](C2)c2cccc(=O)n2C3)ccc2c3c(c(=O)oc12)CCC3 | nt | 1.9 | nt | -4 | nt
O=C(CN1C(=O)NC2(CCCC2)C1=O)OCCOc1ccc(Br)cc1 | nt | 1.4 | nt | -16 | nt
CCOc1ccccc1N(C(=O)CNS(=O)(=O)c1ccccc1)C(CC)C(=O)NCc1ccco1 (centres undefined) | 1 | 2.5 | 3 | -9 | -2%
COc1ccc(CCNC(=O)/C=C\c2ccccc2)cc1OC | -1 | 2.4 | 7 | -2 | 2%
COC(=O)c1cc(-c2ccc(OC)cc2)on1 | 0 | 0.6 | nt | 99 | ?
CC(=O)N1C(=O)/C(=C2\SC(=S)N(c3c(C)n(C)n(-c4ccccc4)c3=O)C2=O)c2ccccc21 | 3 | 7.7 | 99* | -4 | 0%
CCCCN(N=Nc1nonc1OC)c1nonc1OC | 2 | 2.6 | -25 | 4 | 6%

Reprinted from the part before: 2 entries, then new ones.
SMILES | Arbovirus anti | RecA intein inh | YopH PTP inh | Mtb betalactam | Mtb H37Rv | others
CC(=O)N1C(=O)/C(=C2\SC(=S)N(c3c(C)n(C)n(-c4ccccc4)c3=O)C2=O)c2ccccc21 | 3 | 7.7 | 99* | -4 | 0%
CCCCN(N=Nc1nonc1OC)c1nonc1OC | 2 | 2.6 | -25 | 4 | 6%
CCc1c(O)nc(SCC(=O)Nc2ccc3c(c2)CCC3)[nH]c1=O | -3 | 7.1 | -29 | 97 | 57µM*
O=C(OCc1ccc(Cl)cc1)c1cnccn1 | 1 | 0.5 | -7 | 65 | 14%
COc1ccc(C(=O)Nc2nc3cc(OC)c(OC)cc3c(=O)[nH]2)cc1 | -4 | nt | -17 | 6 | -2%
CC(=O)c1cccc(N(C(=O)c2cnccn2)C(C(=O)NCc2ccccc2)c2ccco2)c1 (centres undefined) | -3 | 3.9 | -17 | -3 | -5%
Cc1ccc(NC(=O)NNC(=O)COc2ccc([N+](=O)[O-])cc2)cc1C | nt | -0.4 | nt | -7 | nt
CCn1nc(C(=O)Nc2cc(Cl)ccc2-n2cncn2)c2ccccc2c1=O | nt | 0.4 | nt | 0 | nt
O=C(c1cccnc1)N1CCCc2ccccc21 | -1 | 1.4 | -28 | 4 | -3%
O=C(c1ccc(-n2cncn2)c([N+](=O)[O-])c1)N1CCN(S(=O)(=O)c2ccc(F)c(F)c2)CC1 | nt | -0.9 | nt | -16 | nt
Cc1cc(NCC(c2ccccc2)c2ccccc2)n2ncnc2n1 | 8 | 6.1 | nt | 3 | 5%
CN(C)CCCN(C(=O)c1nc2ccccc2s1)c1nc2ccc(F)cc2s1 | nt | -3.8 | nt | -7 | nt
CCOc1ccc(N(CCC#N)S(=O)(=O)c2ccc(OC)cc2)cc1 | -12 | 2.5 | -36 | -11 | 0%
C/C(=C\C1CCCCC1)C(NC(=O)c1ccc(C(F)(F)F)cc1)c1ccc(-c2ccccc2)cc1 (centres undefined) | nt | 5.9 | nt | -8 | -5%
O=C(CCc1c[nH]c2ccccc12)NCCc1ccc(O)cc1 | nt | -0.7 | nt | 0 | nt
S=C(Nc1ccccc1)N1CCn2cccc2C1c1cccnc1 (centres undefined) | 1 | 1.8 | -21 | -2 | nt
Cc1[nH]nc(-c2ccc(OCc3cnn(-c4ccccc4)c3)cc2O)c1Oc1ccccc1F | -24 | 0.5 | -45 | -5 | 4%
CCCNC(=O)Cn1c(=O)oc2cc(S(=O)(=O)N3CCCC3)ccc21 | nt | -1.9 | nt | -6 | nt
Cn1cc(Cl)c(C(=O)Nc2nccs2)n1 | nt | 0.4 | nt | -11 | nt
COc1ccccc1N1CC(C(=O)Nc2nnc(SCC(=O)N3CCCC3)s2)CC1=O (centres undefined) | nt | 0.2 | nt | ? | nt
O=C(CN1CCN(c2ncc(C(F)(F)F)cc2Cl)CC1)NC(=O)NCc1ccccc1 | 7 | nt | -21 | 9 | 2%
CN(CC(=O)Nc1ccccc1Cl)C(=O)COC(=O)c1nc(Cl)ccc1Cl | nt | -0.6 | nt | 0 | nt
CSCCC(NC(=O)c1ccco1)C(=O)NC1CCCCCC1 (centres undefined) | nt | -3.5 | nt | -8 | nt
C=CCN(c1ccccc1)S(=O)(=O)c1ccc(Cl)c(C(=O)OCC(=O)NCCCN2CCCC2=O)c1 | 1 | -0.7 | nt | -5 | -4%
COc1cccc(N2CCN(C(=O)c3cc4cc(Cl)ccc4[nH]3)CC2)c1 | nt | 0.3 | nt | 3 | nt
CCOC(=O)N1CCN(C(=O)CCc2ccc(S(=O)(=O)NCCc3ccccc3)cc2)CC1 | 12 | 0.5 | -4 | -9 | 16%
CCN1CCN(Cc2ccc(NC(=O)c3cc(NC(=O)c4nccnc4N)cc(OC)c3)cc2C(F)(F)F)CC1 | nt | 2.5 | nt | 96 | 6%
COc1ccc(CCNC(=O)c2cnc(C)cn2)cc1 | nt | -0.2 | nt | 7 | nt
Cc1ccc(C(=O)N/C(=C/c2ccco2)C(=O)NCCc2c[nH]c3ccccc23)cc1 | -5 | 13 | -26 | 2 | 7%
